From PubChem
gsp antag: gsp mutant antagonism; gsp-mutant cells, cAMP HTRF, 30 min; control for the full effect not named in the record; Potency, µM (top dose mostly 76.9 µM), for the others: at the top dose activity change, negative = inhibition, hits mostly inhibitors; 0.4% of 340,000 active; AID 624288; active = falling curve of any shape with a large fitted effect; inconclusive = falling curve, mostly with a smaller effect; inactive = flat or rising curve; cell line not stated here;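 also: intracellular cAMP measured with PDE inhibitor Ro 20-1724 present during compound exposure; potency is read from the fitted curve at half-maximal effect; % is scaled to controls: 0 for no effect and ±100 for the full control effect; nearly all actives have a fitted effect of over 65% in size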
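HTRF cAMP read-out (cAMP-d2 plus anti-cAMP antibody-K in lysis buffer, 30 min RT). Before lysis, cells are exposed to compounds with […] for 30 min at 37C in DPBS containing Ca/Mg, BSA and Tween 20.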
Menin MLL FP FL: inhibitors of human menin-MLL interaction, wild-type MLL peptide | 290,000 tested, under 10 active | FP activity change, % at 61.4 µM | Fluorescence polarization, fluorescein-MLL peptide displacement from menin; inconclusive = falling polarisation curve, or a change in total fluorescence; inactive = total fluorescence flat and polarisation flat or rising; no compound was filed as active; the % refers to the polarisation; negative = inhibition;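 also: % of control where 0% means no effect; inhibitors lower the polarisation; unlabelled MLL peptide was the positive control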
Sfp PPTase inh: blocks B. subtilis Sfp PPTase activity; Q9F4F7; Biochemical Sfp PPTase activity, qHTS; Potency, µM, for inactives: max response, negative = inhibition, actives largely listed as inhibitors; 3.5% of 310,000 active; active = well fitted inhibition curve with a large enough effect; inconclusive = small, poorly fitted or top-dose-only effect, or another doubt; inactive = no such curve, though single readings can be large or run the other way;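 also: the enzyme is Sfp with the accession as filed and its product quenches rhodamine fluorescence; potency is read from the fitted curve at half-maximal effect; 0% = enzyme reaction without inhibitor and -100% = no enzyme wells; top concentration of the series not given in the record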
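With Hepes-Na pH 7.6 buffer containing 10 mM MgCl2, Sfp (15 nM) modified BHQ-2-YbbR (12.5 uM) using rhodamine-CoA (5 uM). Two reads 30 minutes apart at 525/598 nm yielded each well's rate.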
ClpP mod: qHTS Assay for Activators of ClpP. purified B. subtilis ClpP, FRET peptide cleavage, 20 min. 1.9% of 340,000 active. AID 651965, 2013. Potency, µM (top dose mostly 57.5 µM), for inactives: at the highest dose activity change, negative = active; active = well fitted falling curve with a large enough effect; inconclusive = small, poorly fitted or top-dose-only effect; inactive = no such curve, though single readings can be large or run the other way; also: potency is read from the fitted curve at half-maximal effect; the source files actives as falling curves though it sought activators and does not explain the sign; nearly all actives have a fitted effect of over 65% in size; many hits overshoot -100%
Target sequence (P80244 whole entry, looked up): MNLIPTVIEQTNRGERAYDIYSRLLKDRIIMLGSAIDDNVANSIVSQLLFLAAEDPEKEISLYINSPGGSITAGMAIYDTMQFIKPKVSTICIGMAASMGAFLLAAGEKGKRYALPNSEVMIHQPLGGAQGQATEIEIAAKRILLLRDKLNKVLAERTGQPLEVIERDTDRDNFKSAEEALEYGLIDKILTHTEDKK
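FRET quenching reversal measured ClpP activation: 10 microg/mL B. subtilis ClpP at pH 8 with the FRET-FV decapeptide, read at 430 nm after 320 nm excitation. The 20-min minus 0-min signal was scaled between DMSO/no-enzyme wells and ADEP (5.8 microM final).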
D2 potentiator: potentiates the human D2 dopamine receptor allosterically. 0.23% of 360,000 active. potentiation, % (concentration not given with the values). DiscoveRx D2 beta-arrestin cells, luminescence, 90 min; 100% = 57 uM dopamine signal. P14416; active = potentiation of 50% or more; inconclusive = 30% to 50%; inactive = 30% or less;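 also: compound concentration not given in the record; tested on top of an EC20 dose of dopamine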
Target sequence (P14416 whole entry, looked up): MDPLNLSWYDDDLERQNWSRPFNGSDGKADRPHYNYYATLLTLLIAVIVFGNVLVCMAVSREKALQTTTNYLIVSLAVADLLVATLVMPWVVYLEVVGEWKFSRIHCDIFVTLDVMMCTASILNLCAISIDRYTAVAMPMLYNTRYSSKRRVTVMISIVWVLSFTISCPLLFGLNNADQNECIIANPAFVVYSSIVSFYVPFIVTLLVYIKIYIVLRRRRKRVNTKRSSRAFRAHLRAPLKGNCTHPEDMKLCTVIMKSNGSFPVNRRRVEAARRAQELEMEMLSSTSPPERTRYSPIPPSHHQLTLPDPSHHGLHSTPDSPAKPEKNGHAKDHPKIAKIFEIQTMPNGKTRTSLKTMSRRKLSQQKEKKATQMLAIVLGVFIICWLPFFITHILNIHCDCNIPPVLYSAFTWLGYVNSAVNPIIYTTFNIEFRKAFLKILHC
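PathHunter beta-arrestin assay in DiscoveRx D2 cells. Compounds were added with an EC20 of dopamine (50 nM final) for 90 min at 37 deg C. Luminescence was read 1 h after detection reagent, with 57 uM dopamine as the EC100 control.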
gsp agonist: agonists of gsp mutant (McCune-Albright syndrome); gsp mutant cells, cAMP HTRF, 30 min; control for the full effect not named in the record; Potency, µM (series often up to 76.9 µM), without a hit: top-dose activation (cAMP increase), usual class: activators; 0.13% of 340,000 active; AID 624287; active = well fitted activation curve with a large enough effect; inconclusive = small, poorly fitted or top-dose-only effect, or another doubt; inactive = no such curve, though single readings can be large or run the other way; cell line not stated here;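 also: phosphodiesterase inhibitor Ro 20-1724 added with compounds to block cAMP breakdown; potency is read from the fitted curve at half-maximal effect; nearly all actives have a fitted effect of over 60% in size; about a fifth of the inactives were tested at one dose only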
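Cells in DMEM/10% FBS with G418 were pretreated with compounds in DMSO plus […] (300 uM stock) for 30 min at 37C. cAMP was measured by HTRF (cAMP-d2 plus anti-cAMP antibody-K) after 30 min at room temperature.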
TRPV1 PAM: human TRPV1 potentiation | TRPV1-expressing cells, Fluo-8 calcium influx, capsaicin EC20 potentiation; host cell line not named in the record; control for the full effect not named in the record | potentiation, % at 8.33 µM | 0.02% of 320,000 active | AID 540277; active means potentiation above 80%; inconclusive means 30% to 80%; inactive means below 30%; also: 0% is about no effect
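Fluo-8 calcium influx in TRPV1-expressing cells, kinetic read (ex 480/em 520 nm). Compound added and read 3 min for agonist activity, followed by capsaicin at EC20 final and 2 min further read for enhancement.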
* hit, by the source's call; & = joins results of further samples; [ ] = remark or other dose.

`S=c1[nH]nc(-c2ccccc2)n1/N=C/c1cccc(Cl)c1` gave gsp antag 1.4%, Menin MLL FP FL -1.0, Sfp PPTase inh -29.6%, ClpP mod -0.1%, D2 potentiator -14.3, gsp agonist -5.1% and TRPV1 PAM -7.3.
`CCOc1ccc(N2C(N)=NC(N)=NC2(C)C)cc1` gave gsp antag 1.9%, Menin MLL FP FL 0.3, Sfp PPTase inh 13.4%, ClpP mod -0.5%, D2 potentiator -2.4, gsp agonist -32.3% and TRPV1 PAM -1.7.
For O=C(O)CSc1c2c(nc3cc(C(=O)Nc4cccc(C(F)(F)F)c4)ccc13)CCCC2 the results were gsp antag 16.8%, Menin MLL FP FL -5.4, Sfp PPTase inh 9.4%, ClpP mod 2.1%, D2 potentiator -0.6, gsp agonist 15.1% and TRPV1 PAM 13.6.
Cc1cc(C(=O)O)ccc1NCc1ccncc1 was read as gsp antag -4.9%, Menin MLL FP FL -6.0, Sfp PPTase inh 4.0%, ClpP mod -4.5%, D2 potentiator -3.1, gsp agonist -10.3%[15.4 µM] and TRPV1 PAM 22.8.
`COCCNC(=O)CCSCc1ccccc1F` gave gsp antag 2.9%, Menin MLL FP FL 1.2, Sfp PPTase inh 17.4%, ClpP mod 0.6%, D2 potentiator -4.0, gsp agonist -56.1%[inhibitor] and TRPV1 PAM -8.5.
Cn1cccc1Cc1nnc(SCC(=O)NCc2ccco2)n1-c1ccc(F)cc1 was read as gsp antag 3.9%, Menin MLL FP FL 9.7, Sfp PPTase inh -19.7%, ClpP mod 10.1%, D2 potentiator -7.8, gsp agonist 20.6% and TRPV1 PAM -7.1.
Screening CCC1Sc2ccc(S(=O)(=O)CCC(=O)NCc3ccco3)cc2NC1=O (stereo unspecified) returned gsp antag 0.2%, Menin MLL FP FL 2.3, Sfp PPTase inh 6.2%, ClpP mod 2.8%, D2 potentiator -7.9, gsp agonist 1.8% and TRPV1 PAM 4.7.
COc1ccc(NC(=O)c2cccc(S(=O)(=O)N3CCN(C)CC3)c2)c(OC)c1 was read as gsp antag 10.6%, Menin MLL FP FL 0.3, Sfp PPTase inh 5.9%, D2 potentiator -9.4, gsp agonist 0.1%[15.4 µM] and TRPV1 PAM 8.3.
CCN1CCCC1Cn1cnc2c([nH]c3cccc(Cl)c32)c1=O (stereo unspecified) was read as gsp antag -6.2%, Menin MLL FP FL -2.8, Sfp PPTase inh -6.3%, ClpP mod 31.6µM*, D2 potentiator -44.0, gsp agonist 10.6% and TRPV1 PAM 0.8.
COc1c2c(nc3ccccc13)OC(C(C)(O)COC(C)=O)C2 (stereo unspecified) was read as gsp antag 6.4%, Menin MLL FP FL 0.0, Sfp PPTase inh -15.0%, ClpP mod -2.6%, D2 potentiator -5.0, gsp agonist 12.1% and TRPV1 PAM -9.8.
CN(C)C(=O)N1CCC(C(=O)NCc2ccc3c(c2)OCO3)CC1 was read as gsp antag 7.3%, Menin MLL FP FL -0.5, Sfp PPTase inh -8.4%, ClpP mod -0.8%, D2 potentiator -7.9, gsp agonist 7.6% and TRPV1 PAM 6.2.
For CCCCn1c(N)c(N(CC(C)C)C(=O)C2CCN(S(=O)(=O)c3ccc(OCC)cc3)CC2)c(=O)[nH]c1=O the results were gsp antag 6.4%, ClpP mod -5.3%, D2 potentiator -3.0, gsp agonist 12.8% and TRPV1 PAM -0.4.
Screening C=CCn1c(NCCO)nc2c1c(=O)n(C)c(=O)n2C returned gsp antag 1.9%, Menin MLL FP FL 3.3, Sfp PPTase inh -3.9%, ClpP mod 0.3%, D2 potentiator -9.6, gsp agonist -7.8% and TRPV1 PAM 1.3.
For CC(CN1CCN(Cc2ccccc2)CC1)c1ccccc1 (stereo unspecified) the results were gsp antag -1.5%, Menin MLL FP FL 0.0, Sfp PPTase inh -9.8%, ClpP mod -10.6%, D2 potentiator -64.0, gsp agonist 8.9% and TRPV1 PAM 5.3.
Screening COC(=O)COc1ccccc1C(N)=O returned gsp antag 7.4%, Menin MLL FP FL 6.4, Sfp PPTase inh 8.8%, ClpP mod -10.5%, D2 potentiator -22.7, gsp agonist -28.9% and TRPV1 PAM 0.2.

Filtered by structure, the compounds so far with a furan ring, fused or not.
Cn1cccc1Cc1nnc(SCC(=O)NCc2ccco2)n1-c1ccc(F)cc1 was read as gsp antag 3.9%, Menin MLL FP FL 9.7, Sfp PPTase inh -19.7%, ClpP mod 10.1%, D2 potentiator -7.8, gsp agonist 20.6% and TRPV1 PAM -7.1.
Screening CCC1Sc2ccc(S(=O)(=O)CCC(=O)NCc3ccco3)cc2NC1=O (stereo unspecified) returned gsp antag 0.2%, Menin MLL FP FL 2.3, Sfp PPTase inh 6.2%, ClpP mod 2.8%, D2 potentiator -7.9, gsp agonist 1.8% and TRPV1 PAM 4.7.

(list continues)
C=C1/C=C(\C)C(C)(O)CC(O)CC(=O)C(O)C(O)C(C)CC(C)OC(=O)/C(C)=C/CC/C=C/C(OC)C(O)CC(C)C1 (stereo unspecified) was read as gsp antag -15.6%, ClpP mod 2.4% and D2 potentiator 27.4.
COc1ccc(-c2cc(=Nc3c(C)n(C)n(-c4ccccc4)c3=O)c3ccccc3o2)cc1 was read as gsp antag -12.8%, Menin MLL FP FL 4.0, Sfp PPTase inh -12.0%, D2 potentiator -9.6, gsp agonist inconclusive and TRPV1 PAM -6.2.
`Cc1cc(Br)ccc1SCC(=O)OCC(=O)Nc1ncc(C(F)(F)F)cc1Cl` gave gsp antag 3.6%, Menin MLL FP FL 9.2, Sfp PPTase inh -3.4%, ClpP mod 2.1%, D2 potentiator -2.3, gsp agonist -7.2%[15.4 µM] and TRPV1 PAM 23.7.
`Cc1ccc(CSCC(=O)Nc2cc(S(=O)(=O)N3CCOCC3)ccc2OC(C)C)cc1` gave gsp antag -9.8%, D2 potentiator 3.2, gsp agonist -12.0%[15.4 µM] and TRPV1 PAM 0.1.
CCc1ccccc1NC(=O)c1ccc(-n2c(C)ccc2C)cc1 was read as gsp antag 13.8%, Menin MLL FP FL 29.1, Sfp PPTase inh 13.6%, ClpP mod -1.9%, D2 potentiator 5.1, gsp agonist -0.2% and TRPV1 PAM -2.7.
`Cc1sc(NC(=O)c2ccco2)c(C(c2cccnc2)N2CCN(c3ccc(F)cc3)CC2)c1C` (stereo unspecified) gave gsp antag -14.7%, Menin MLL FP FL 3.0, Sfp PPTase inh -0.4%, ClpP mod inconclusive, D2 potentiator -15.3, gsp agonist -19.7% and TRPV1 PAM 21.4.
Screening Cc1c(Cl)cccc1NC(=O)CSc1nccn1C returned gsp antag 4.2%, Menin MLL FP FL -3.5, Sfp PPTase inh 8.4%, ClpP mod -0.4%, D2 potentiator 1.1, gsp agonist -4.3% and TRPV1 PAM -3.0.
Screening O=C(COC(=O)c1ccc(CNS(=O)(=O)c2ccc(F)c(Cl)c2)cc1)NCC1CCCCC1 returned gsp antag -0.1%, Menin MLL FP FL 8.8, Sfp PPTase inh 8.9%, ClpP mod 1.5%, D2 potentiator -7.8, gsp agonist -10.4% and TRPV1 PAM 5.7.
`O=C1C(Cc2ccccc2)Nc2ncnc(N3CCOCC3)c2N1Cc1ccccc1` (stereo unspecified) gave gsp antag -1.8%, ClpP mod -0.4%&-1.9%, D2 potentiator -4.6&-5.6 and gsp agonist -5.8%.
`O=C(Nc1ccc(OC(=O)c2ccco2)cc1)c1ccco1` gave gsp antag -9.1%, Menin MLL FP FL 3.6, Sfp PPTase inh -6.7%, ClpP mod -4.6%, D2 potentiator -6.4, gsp agonist -22.1% and TRPV1 PAM 18.0.
CCc1nnc(NC(=O)CSc2nnc3c(n2)[nH]c2ccccc23)s1 was read as gsp antag 6.1%, Menin MLL FP FL 3.2, Sfp PPTase inh 17.4%, D2 potentiator -5.3, gsp agonist 2.9%[15.4 µM] and TRPV1 PAM 3.3.
`COc1ccc(C2/C(=C(\O)c3ccc4c(c3)CC(C)O4)C(=O)C(=O)N2Cc2cccnc2)c(OC)c1` (stereo unspecified) gave gsp antag 5.3%, Sfp PPTase inh -1.0%, ClpP mod -1.5%, D2 potentiator -24.8, gsp agonist 17.1%[15.4 µM] and TRPV1 PAM 1.0.
`Cc1[nH]ccc(=O)c1OCc1c(F)cccc1Cl` gave gsp antag 13.1%, Menin MLL FP FL -2.6, Sfp PPTase inh -0.4%, D2 potentiator -2.4, gsp agonist -40.0%[inhibitor] and TRPV1 PAM 2.7.
Cc1ccc(OCc2nc3c4c(ncn3n2)-c2ccccc2CC42CCCC2)cc1 was read as gsp antag 0.7%, Menin MLL FP FL 0.3, Sfp PPTase inh -0.9%, ClpP mod inconclusive, D2 potentiator -13.0, gsp agonist -44.3%[inhibitor] and TRPV1 PAM 1.2.
O=C(Nc1ccc(Cl)cc1Cl)c1cccc(N2C(=O)C=CC2=O)c1 was read as gsp antag -3.7%, Menin MLL FP FL -4.0, Sfp PPTase inh 16.1%, ClpP mod -0.7%, D2 potentiator -40.8, gsp agonist -26.8% and TRPV1 PAM 19.3.
CN(C)C(=O)CSc1nnc(Cc2ccccc2)n1CC1CCCO1 (stereo unspecified) was read as gsp antag 10.8%, Menin MLL FP FL 0.8, Sfp PPTase inh 21.8%, ClpP mod -1.2%, D2 potentiator 3.1, gsp agonist -44.4% and TRPV1 PAM -1.2.
Screening CCOc1ccccc1N1CC(C(=O)NCCC2=CCCCC2)CC1=O (stereo unspecified) returned gsp antag 4.8%, D2 potentiator -3.6 and gsp agonist 9.2%[15.4 µM].
Screening CCCC(C(=O)NC(C)(C)C)N(Cc1ccccc1Cl)C(=O)c1snc(C(N)=O)c1N (stereo unspecified) returned gsp antag inconclusive, Menin MLL FP FL -2.4, Sfp PPTase inh 17.8%, ClpP mod -20.2%, D2 potentiator 2.5, gsp agonist -13.7% and TRPV1 PAM -9.5.
Screening Cc1cc(=O)[nH]c2c1c(C)nn2C1CCCCC1 returned gsp antag 1.2%, Menin MLL FP FL 1.8, Sfp PPTase inh 8.5%, ClpP mod -1.9%, D2 potentiator 2.3, gsp agonist inconclusive and TRPV1 PAM -1.6.
Screening CCOCCn1c(N2CCN(c3ccc(OC)cc3)CC2)nc2c1c(=O)[nH]c(=O)n2C returned gsp antag -9.1%, Menin MLL FP FL 3.3, Sfp PPTase inh 13.4%, ClpP mod 0.3%, D2 potentiator 19.5, gsp agonist 9.2% and TRPV1 PAM 4.1.
